Screening data from PubChem.
YopH PTP inh = YopH (Yersinia) phosphatase inhibition | inhibition, %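 (about 10 µM by stock and volumes)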 | fluorescence Ex485/Em525 | 140,000 compounds, 0.16% hits;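 active = inhibition of 50% or more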;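 note: controls were vehicle for no effect and minimum signal wells for full effect; inactives centre near -20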
RecA splice inh = blocks M. tuberculosis RecA intein splicing. P9WHJ3. cell-free RecA intein splicing, fluorescence. inhibition, %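 (about 9 µM by stock and volumes)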. 290,000 compounds, 0.75% hits; in the data active = inhibition above about 30%; inconclusive = no clear call, values can overlap the other calls;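 note: 0% = vehicle wells and 100% = reference inhibitor control wells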
Target sequence (P9WHJ3 whole entry, looked up, canonical isoform): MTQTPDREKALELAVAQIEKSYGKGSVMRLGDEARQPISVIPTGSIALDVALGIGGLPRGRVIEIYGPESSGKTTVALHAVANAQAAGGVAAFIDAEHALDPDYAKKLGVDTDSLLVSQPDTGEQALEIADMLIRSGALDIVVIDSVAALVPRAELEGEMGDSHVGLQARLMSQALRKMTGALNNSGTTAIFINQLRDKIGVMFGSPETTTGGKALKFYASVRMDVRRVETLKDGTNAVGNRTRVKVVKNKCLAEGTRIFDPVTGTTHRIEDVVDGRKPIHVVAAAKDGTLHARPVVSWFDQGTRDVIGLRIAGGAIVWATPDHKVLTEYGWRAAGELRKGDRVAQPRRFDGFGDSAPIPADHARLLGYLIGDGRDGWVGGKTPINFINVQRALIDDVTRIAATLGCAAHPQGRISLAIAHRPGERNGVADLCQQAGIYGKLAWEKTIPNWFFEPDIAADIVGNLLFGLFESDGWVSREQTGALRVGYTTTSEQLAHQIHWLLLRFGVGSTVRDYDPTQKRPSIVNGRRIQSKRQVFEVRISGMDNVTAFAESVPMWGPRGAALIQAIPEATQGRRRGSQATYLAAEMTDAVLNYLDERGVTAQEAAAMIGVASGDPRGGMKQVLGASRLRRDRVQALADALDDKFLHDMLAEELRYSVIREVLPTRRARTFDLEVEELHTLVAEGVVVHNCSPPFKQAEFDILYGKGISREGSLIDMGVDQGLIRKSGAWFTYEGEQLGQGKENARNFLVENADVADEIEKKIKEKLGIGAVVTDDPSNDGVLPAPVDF
Arbovirus inh = blocks arbovirus infection; arbovirus infection cell-based antiviral screen; inhibition, % at 10 µM; 200,000 compounds, 0.37% hits;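 active = inhibition from about 30%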;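 note: bluetongue infection of BSR cells; cell survival read as ATP light after 72 h; 0% = infected wells without compound and 100% = uninfected wells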
Mtb H37Rv = M. tuberculosis H37Rv growth inhibitors, H37Rv strain (AID 1626). one-dose inhibition, % at 10 µM; IC50 in µM for titrated hits. 220,000 compounds, 0.95% hits. M. tuberculosis H37Rv growth inhibition; higher % means a stronger effect;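 active = confirmed in a dose series; inconclusive = inhibition above 80% but not taken into the dose series; inactive = below 80% or under 30% at every dose of the series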;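 note: bacteria incubated seven days before Alamar blue readout; 0% = bacteria only wells and 100% = bacteria with antibiotic wells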
Mtb betalactam = beta-lactam sensitization of Mtb H37Rv; inhibition, % at 25 µM; AID 434955; M. tuberculosis H37Rv growth with meropenem, percent inhibition; hits of this screen are not shown here; 330,000 compounds, 0.27% hits;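 active = about 74% or more and at least 40 points above the plate without the antibiotic, then above 30% in a dose series; inconclusive = first-round hits that could not be retested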;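 note: growth measured after seven days incubation then overnight dye step; 0% = bacteria only wells and 100% = bacteria with antibiotic; twin plates without the antibiotic show which effects depend on it; some results filed as inactive read as strong as hits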
Arbovirus inh repeat = second read-out of Arbovirus inh, no call of its own (marks repeat the call); inhibition, %; measured here: 10K subset replicate screen; many hits read low in the repeat;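 first of two repeat runs on a subset; 0% = infected and 100% = uninfected wells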
* hit, by the source's call; ? = inconclusive; nt = not tested or not shown. An excerpt; the hit share may differ from the screen's.

SMILES	YopH PTP inh	RecA splice inh	Arbovirus inh	Mtb H37Rv	Mtb betalactam	others
COc1ccc2c(C)cc(N3CCN(Cc4ccccc4)CC3)nc2c1	nt	-0.9	nt	nt	8
CCCOc1ccccc1/C=N/NC(=O)C1CC1	nt	-1.8	nt	nt	3
Cc1cc(C)n2nc(C)c(-c3ccc(Cl)cc3)c2n1	nt	4.2	nt	nt	3
CCOC(=O)N1CCN(S(=O)(=O)c2ccc3[nH]cc(C(=O)O)c(=O)c3c2)CC1	-21	-3.6	-3	-7%	0
CN(c1cccc(NC(=O)c2ccc(N(C)S(=O)(=O)c3ccccc3)cc2)c1)S(C)(=O)=O	nt	3.8	-11	-7%	5
O=C(COC(=O)c1cccnc1)c1ccc(Cl)cc1	-35	-0.1	6	-5%	-4
COc1cc2cc(CN(CCCO)S(=O)(=O)c3ccccc3Cl)c(=O)[nH]c2cc1OC	-6	0.8	6	-3%	0
Cc1cc(C)cc(NC(=O)Nc2ccc(S(=O)(=O)Nc3cc(C)on3)cc2)c1	nt	0.4	nt	nt	2
CCC(C)NC(=O)C1CCN(S(=O)(=O)c2cccc3cccnc23)CC1 (configuration not stated)	-29	nt	5	0%	5	Arbovirus inh repeat=2
CCC(C)Sc1ccc(-c2nc3ccc(C)cn3c2NCc2ccccc2)cc1OC (configuration not stated)	nt	-0.8	nt	nt	99
FC(F)(F)c1cccc(N2CCN(c3ccc4nnc(-c5ccccc5)n4n3)CC2)c1	-31	2.6	-5	6%	6
O=C(CN1C(=O)NC2(CCc3ccccc32)C1=O)c1ccccc1 (configuration not stated)	nt	-3.8	nt	nt	5
COc1cc(C(C(=O)NC2CCCCC2)N(C(=O)Cc2c[nH]c3ccccc23)c2ccccc2C)cc(OC)c1OC (configuration not stated)	-45	8.9	-13	-4%	5
COc1ccc(Cl)cc1NC(=O)CSc1nc(-c2ccccc2)cc(=O)[nH]1	nt	0.2	nt	nt	3
CC(C)c1cc(C(=O)Nc2cccc(C(F)(F)F)c2)no1	-24	1.9	-2	2%	-7
O=C(Cn1nnc2ccccc2c1=O)Nc1cccc(S(=O)(=O)N2CCOCC2)c1	nt	0.7	2	-4%	1
COc1cccc(-n2c(=O)[nH]cc(C(=O)Nc3ccc4c(c3)OCCO4)c2=O)c1	-1	1.4	16	8%	3	Arbovirus inh repeat=3
CSCCC(NC(=O)c1ccccc1Cl)C(=O)NC1CCN(Cc2ccccc2)CC1 (configuration not stated)	nt	0.2	nt	nt	-1
Cc1cccc(NC(=O)c2cc(NC(=O)c3ccccc3)ccc2N2CCCCC2)c1	2	0.3	-2	-11%	0
CCOC(=O)C1CCN(S(=O)(=O)c2cccc(-c3cn4cc(Cl)ccc4n3)c2)CC1	-8	1.2	2	-4%	-1
COc1ccc(CN(C(=O)c2ccc(CN3CCOCC3)o2)C(C(=O)NCC2CCCO2)c2ccc(F)cc2)cc1 (configuration not stated)	nt	-0.3	4	-5%	-4
CC(O)CNCc1ccc(-c2ccccc2)cc1 (configuration not stated)	3	1.2	-7	-1%	2
Brc1ccc(C2CC(c3ccccc3)=Nc3ccccc3N2)cc1 (configuration not stated)	-12	1.4	7	6%	10
CCCCN1C(=O)C(=O)N(c2ccccc2)C1=S	-27	4.2	-1	-1%	-6
COc1cc(Cl)c(C)cc1NC(=O)CSc1sc2c(O)cc(=O)[nH]c2c1C#N	nt	1.6	nt	nt	-3
Cc1ccc2[nH]c3c(c2c1)CN(C(=O)CN1CC(C)OC(C)C1)CC3 (configuration not stated)	-3	nt	3	2%	-11
O=C(c1ccc(Cn2cc(Br)cn2)cc1)N1CCN(c2ccccc2)CC1	-17	2.3	-17	11%	36
N#CCCCSc1nnc(-c2ccccn2)o1	-27	-0.1	9	-8%	?
NS(=O)(=O)c1ccc(NS(=O)(=O)c2cccs2)cc1	-17	-3.2	7	-2%	1
COc1cc2c(cc1OC)C(c1cccs1)N(C(=O)c1cccnc1)CC2 (configuration not stated)	nt	0.3	-11	2%	2
O=C(O)CC1S/C(=N\N=C2CCCCCC2)N(c2ccccc2)C1=O (configuration not stated)	nt	1.7	nt	-6%	-3
CCN1CCN(S(=O)(=O)c2ccc(Cl)c(C(=O)NC(C)(C)C)c2)CC1	nt	0.7	10	-4%	-6
Cc1ccc(S(=O)(=O)N=S(CC2CC2(Cl)Cl)CC2CC2(Cl)Cl)cc1 (configuration not stated)	-31	-1.6	-9	-6%	-6
Cc1cccc(Cc2cnc(N3C(=N)SC(C)C3=O)s2)c1 (configuration not stated)	nt	9.2	-32	?	91
Cc1cc(=O)n2nc(N3CCCC(C(=O)NCc4ccccc4Cl)C3)sc2n1 (configuration not stated)	nt	-4.1	nt	nt	-7
CSc1ccc(/C=C(/NC(=O)c2ccc(C)cc2)C(=O)Nc2cccc(F)c2)cc1	-26	0.2	-8	nt	10
O=C1NCCN/C1=C\C(=O)c1cccc(Br)c1	nt	0.1	nt	-4%	-10
COc1ccc(/C=N/n2cnnc2)cc1Br	nt	1.4	nt	-2%	-9
O=C(NC(=O)N1CCC2(CC1)OCCO2)c1ccc(Cl)cc1	nt	-6.5	7	-3%	5
CCCCOc1ccc(-c2ncc(Cl)cn2)cc1	-4	1.7	1	-4%	-4	Arbovirus inh repeat=2
O=C(NC1CCCCC1)C1CCCN1S(=O)(=O)c1cccc2nsnc12 (configuration not stated)	-46	-1.2	11	-9%	4
Cc1cc(S(=O)(=O)NCc2ccccc2)ccc1OCC(=O)N1CCOCC1	nt	-5.1	11	1%	-3
O=c1cc(-c2ccccc2)nc(SCc2ccc(Cl)cc2)[nH]1	0	-1.8	3	-5%	7
CC(C)S(=O)(=O)c1nsc2nc(=O)c(/C=C3\C=Nc4ccccc43)c(N)n12	nt	-20	37*	4%	-1
COc1c(Cl)cc(Cl)cc1CNCCO	nt	-1.0	2	-3%	-2
O=C(COc1ccc(S(=O)(=O)NCc2ccccc2)cc1Cl)NCC1CCCO1 (configuration not stated)	-11	0.4	-3	-1%	-5
CCOc1cc(C(=O)OCC(=O)c2c[nH]c3ccccc23)ccc1OCC(=O)N1CCOCC1	-123	-0.2	3	-10%	-10
CCOC(=O)C1(Cc2cccc(OC)c2)CCN(Cc2cccc(O)c2)CC1	nt	-1.7	10	-11%	5
CCOc1ccc(-c2c(=O)n(OCc3ccccn3)c3ccccc3[n+]2[O-])cc1	4	1.8	-3	-3%	9
CCNC(=S)N/N=C(\C)c1ccc(N2CCOCC2)cc1	5	0.4	-5	?	95
O=C(c1cccnc1)N1CCc2ccccc2C1	-13	1.4	-8	-8%	-8
Cc1nn(C2CCS(=O)(=O)C2)c(Cl)c1/C=C/C(=O)OCC(=O)Nc1ccc2c(c1)OCO2 (configuration not stated)	nt	-1.3	7	0%	2
CC1=CC(=O)NP(=O)(Oc2ccc3ccccc3c2)N1 (configuration not stated)	-30	0.1	14	?	99
CSc1nc(NCCCO)c2c3c(sc2n1)CN(C)CC3	nt	-9.2	nt	-5%	2
Nc1ccc(CCc2nc3ccccc3o2)cc1	-22	-1.7	-14	48%	89
CN(C)CCN=Cc1c(O)n(Cc2ccc3c(c2)OCO3)c(=S)[nH]c1=O	nt	-0.1	nt	-7%	-4
CN1C(=O)c2cccc3c(S(=O)(=O)Nc4ccccn4)ccc1c23	-20	-19	3	3%	2
COC(=O)c1cc(C)nc(Sc2ccccc2NC(C)=O)n1	nt	-0.6	nt	-7%	-1
CCOc1ccc2[nH]c(=O)c(=O)[nH]c2c1	-10	nt	13	-6%	-2
COCCCN(C(=O)c1ccccc1F)c1nc(-c2ccc(OC)cc2)cs1	nt	1.7	nt	nt	10

Later entries
SMILES	YopH PTP inh	RecA splice inh	Arbovirus inh	Mtb H37Rv	Mtb betalactam	others
O=C(Cc1ccccc1)OCCNC(=O)c1cccnc1	-17	-6.4	0	-10%	1
Cc1cc(C)c(S(=O)(=O)N2CCN(c3ccc([N+](=O)[O-])c(NCc4ccco4)c3)CC2)c(C)c1	-36	nt	-1	-4%	9
CCn1cc(CN2CCC(C(=O)Nc3cccc(-c4cccc(OC)c4)c3)CC2)cn1	nt	2.7	nt	nt	-5
CC(C)(C)c1ccc(OCCC(=O)Nc2ccc(N3CCOCC3)cc2N2CCOCC2)cc1	nt	3.9	nt	nt	5
CC(=O)c1ccc(Sc2ccccc2)c([N+](=O)[O-])c1	nt	4.6	nt	4%	-10
O=C1NC2(C=Cc3c(ccc4ccccc34)O2)Oc2ccccc21 (configuration not stated)	5	-4.0	14	-8%	-1
COc1cccc(/C=C/C(=O)OCC(=O)Nc2cccc(S(=O)(=O)N3CCOCC3)c2)c1OC	nt	2.9	-3	-7%	-7
CC1CCCCN1C(=O)C(=O)c1cn(CC(=O)N2CCCCCC2)c2ccccc12 (configuration not stated)	nt	-2.1	nt	nt	-1
O=C(CN1C(=O)COc2ccccc21)NCC1CCCO1 (configuration not stated)	nt	-2.0	nt	nt	-3
COC(=O)c1ccc(C(=O)OC)c(NC(=S)N2CCN(c3ccccc3F)CC2)c1	-34	-12	3	-5%	4
COc1cc(NS(=O)(=O)c2ccc3[nH]c(=O)oc3c2)cc(OC)c1	nt	-1.9	4	1%	-3
N#Cc1ccccc1Sc1ccccc1C(=O)N1CCOCC1	-41	-0.9	4	-4%	-13
CN(C)N=C1c2cc(S(=O)(=O)N(C)C)ccc2-c2ccc(S(=O)(=O)N(C)C)cc21	nt	-2.3	nt	nt	-1
CCCCN(Cc1cccs1)S(=O)(=O)c1csc(C(N)=O)c1	nt	-1.6	nt	nt	23
CCOc1cccc(/C(O)=C2/C(=O)C(=O)N(Cc3ccco3)C2c2ccncc2)c1 (configuration not stated)	-38	-0.3	3	1%	-10
CCc1ccc(OCCCC(=O)Nc2nnc(C3CCCO3)s2)cc1 (configuration not stated)	nt	-2.2	-21	5%	-2
Cc1ccc(SC(C)C(=O)Nc2cccc(N(C)S(C)(=O)=O)c2)cc1 (configuration not stated)	-29	0.3	5	0%	-10
CC1CCCN(Cc2c(O)ccc3c2O/C(=C\c2ccco2)C3=O)C1 (configuration not stated)	-7	-29	16	1%	-6
CN(CC(=O)Nc1ccncc1)S(=O)(=O)c1ccc(Cl)cc1	-28	0.6	7	6%	-10
O=C(O)CN1C(=O)C2(OCCCO2)c2ccccc21	-14	0.9	5	-7%	?
CCOC(=O)c1cnc(SCC(=O)c2ccccc2)nc1N	-20	-2.4	5	-1%	-15
O=C(Nc1ccc2ccccc2n1)c1ccccc1Cl	nt	-0.4	nt	nt	3
CC(/C=C1\SC(=S)N(CC(=O)N2CCN(c3ccccc3)CC2)C1=O)=C\c1ccccc1	-20	0.9	-2	-2%	29
COc1cc(COCC(O)CN2CCCCC2C)cc(OC)c1OC (configuration not stated)	nt	1.2	nt	nt	-8
O=C(NCc1ccc(Cl)cc1)C(=O)c1c[nH]c2ccccc12	nt	1.7	-5	-1%	1
CCOC(=O)N=S(=O)(Oc1ccc([N+](=O)[O-])cc1)c1ccccc1 (configuration not stated)	-4	-0.5	8	-8%	-3
COC/C=C/C1=CC2=CC(=O)C(C)(OC(=O)c3cnc4ccccc4n3)C(=O)C2=CN1c1ccc(CO)cc1 (configuration not stated)	nt	0.5	nt	nt	-1
COC(=O)C1=C(c2cc3ccccc3o2)C[C@@H]2CC[C@H]1N2C(=O)N1CCOCC1	nt	1.0	nt	1%	-2
Cc1c(Cc2ccccc2)c(=O)oc2c(C)c(OC(C)C(=O)NCC3CCC(C(=O)O)CC3)ccc12 (configuration not stated)	nt	0.5	nt	nt	-3
